Bm FixLJ act: increases Burkholderia fixLJ two-component signaling; z-score (test concentration not listed); B. multivorans fixK-promoter GFP reporter, 18 h; hits give high values; AID 1918990; 0.3% of 29,000 active;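 active = replicate mean overnight rise in green fluorescent reporter signal, 3 or more SD over negative controls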;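 also: score is relative to vehicle wells of the plate; 300 nL library stock went into each well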
* = called active by the depositor; & = joins results of further samples.

item	compound	Bm FixLJ act
1	O=C(Nc1ccccc1Br)C1CCCN(S(=O)(=O)c2cccc3nsnc23)C1 (stereo not drawn)	-1.6
2	CCCCOc1ccc(C2=NC(c3cccs3)=Nc3ccc(CC)cc3N2)cc1	0.3
3	CCN(Cc1ccncc1)C(=O)c1csc2c1CCN(Cc1c(C)noc1C)C2	-1.1
4	CCCNC(=O)c1ccc(C)c(NC(=O)NCCSc2ncn[nH]2)c1	-0.6
5	Cn1c(=O)n(C)c2cc(N3CCOCC3)c(NC(=O)c3ccc(Cl)cc3)cc21	0
6	COc1ccc(F)c(F)c1CN1C[C@H]2COC[C@@H](C1)C(=O)N2	-0.46
7	CC(C)(O)CCc1ccc(C(=O)NCc2noc(-c3ccco3)n2)cc1	1.3
8	NC(CO)C(=O)N1CCC(O)(c2cccc(C(F)(F)F)c2)CC1 (stereo not drawn)	-0.72
9	COc1ccc(C(=O)Oc2c(Sc3ccc(C)cc3)c(C)nn2C(C)(C)C)cc1OC	1.3
10	C=C(C)COc1cccc(NC(=O)NCCCC(=O)NC)c1	-1.2

Looked up above:
Bm FixLJ act with compound 8 : -0.72
Bm FixLJ act with compound 4 : -0.6

Next compounds follow.
item	compound	Bm FixLJ act
11	COc1ccc(CNC(=O)C(=O)Nc2ccc(OC)cc2OC)cc1	-1.1
12	O=C(CCN1CCCCC1)N1CCc2nc(-c3ccccc3)[nH]c2C1	-0.34
13	CCOC(=O)[C@@]12CCC(N3CCOCC3)C[C@H]1CCN(CC1=Cc3ccccc3OC1)C2 (stereo partly drawn)	-0.23
14	CCCCOc1ccccc1C(=O)Nc1nonc1-c1ccccc1	2.8
15	COc1ccc(CCNC(=O)CCn2c(=O)c3ccccc3n(CC(=O)Nc3ccccc3F)c2=O)cc1OC	-0.46
16	CCOc1ccc(-n2c(=O)c3c4c(sc3n(CC(=O)Nc3cccc(C(F)(F)F)c3)c2=O)CCCCC4)cc1	-0.53
17	Cc1ccc(C)c(N2CCN(C(=O)Cn3c(C)c4cnn(-c5ccccc5)c(=O)c4c3C)CC2)c1	-1.4
18	CCOc1ccc(CCCNC(=O)N2CCN(C(=O)c3ccc[nH]3)CC2)cc1	-0.16
19	COc1ccc(Cl)cc1NC(=O)NCC1CCN(Cc2ccccc2F)CC1	-7.2
20	CC(C)(CO)NC(=O)c1cc2c(s1)CCOC21CCN(C(=O)CO)CC1	-0.65
21	CN(C)C(=O)c1ccc(NC(=O)Cn2nnnc2-c2ccccc2F)cc1	1.7
22	CSc1cccc(NC(=O)CN(C)S(=O)(=O)c2ccc3c(c2)n(C)c(=O)c(=O)n3C)c1	0.31
23	COc1cc(NC(=O)c2nc3nc(C)cc(C(F)F)n3n2)c(OC)cc1Cl	0
24	O=C(NCC(c1ccccc1)c1ccccc1)c1nn(-c2ccccc2Cl)nc1CO	0.91
25	COCCCNC(=O)C1CCCN(S(=O)(=O)c2ccc3c(c2)oc(=O)n3C)C1 (stereo not drawn)	-1.4
26	Cc1cccc(CC(=O)Nc2ccc3nc(N4CCC(C)CC4)cc(C)c3c2)c1	-1.8
27	Clc1ccc(-c2csc(-c3nc(-c4ccc(Br)s4)cs3)n2)cc1	0.19
28	Cc1ccc(C)c(-n2c(CCC(=O)O)ccc2-c2ccc(Cl)cc2)c1	-0.59
29	Cc1ccc(C)c(NC(=O)CSc2c3c(nc4ccc(Cl)cc24)CCCC3)c1	-2
30	CCCN1CC(C(=O)NCCc2noc(C(F)(F)F)n2)CCC1=O (stereo not drawn)	-3.2
31	CN(C)c1ccc(C(=O)N2CCN(CCC(=O)O)CC2)c2ccccc12	-0.71
32	CCc1cccc(NC(=O)CC2Oc3ccc(C)cc3NC2=O)c1 (stereo not drawn)	-2.9
33	O=C(c1cc(-c2ccc(O)cc2)on1)N1CCN(c2ccccc2)CC1	-1.4
34	CCOc1ccc(CNC(=O)C2CCCN(c3nc4c(C)cc(C)cc4s3)C2)cc1 (stereo not drawn)	-0.96
35	Cc1ccc(Nc2c(-c3ccc(N4CCOCC4)cc3)nc3ccc(C)cn23)cc1	-1.1
36	CCC(=O)N1CCc2cc(Br)cc(S(=O)(=O)CCC(=O)NCc3ccc(C)cc3)c21	-1.4
37	CCC(C)NC(=O)CCc1c(C)nc2cc(-c3ccc(OC)cc3OC)nn2c1C (stereo not drawn)	-2.4
38	Cc1nc2ccc(CC(=O)NC(C)c3ccccc3-n3cccn3)cc2[nH]1 (stereo not drawn)	-1.4
39	CC(=O)NC1CCN(Cc2nc(-c3cccc(C(F)(F)F)c3)oc2C)CC1	0.86
40	Cc1ccccc1-n1cc(CN(C)S(=O)(=O)c2ccc(-c3ccno3)o2)cn1	-1.9
41	CCN(CC)CCNC(=O)c1cc2c(=O)[nH]c3ccc(C)cc3c2s1	-1.6
42	CCCCCCc1cc2cc(-c3nnc(-c4ccc(C)cc4)o3)c(=O)oc2cc1O	8.6*
43	COc1ccc(S(=O)(=O)c2cnc(SCC(=O)Nc3cc(F)ccc3C)[nH]c2=O)cc1Cl	-0.32
44	O=C(NCc1cccc(Br)c1)C1CCN(C(=O)c2sccc2-n2cccc2)CC1	0.31
45	CN1CC[C@]2(C(=O)NCc3cc(C4CC4)on3)CCCN(C(=O)CO)[C@@H]2C1	0.38
46	COC1CCN(C(=O)Cc2c3c(n(Cc4ccccc4)c2C)CCCC3=O)C1 (stereo not drawn)	1.1
47	Cc1c(NC(=O)c2cc(-c3ccc(F)cc3)on2)c(=O)n(-c2ccccc2)n1C	-0.97
48	COc1cccc(-c2cn[nH]c2C2CCN(C(=O)CCCCN)CC2)c1	0.34
49	Cc1ccc(Cn2c(=O)n(-c3ccc(C)c(C)c3)c(=O)c3c(C)c(C)sc32)cc1	1.1
50	CC(C)Cc1cc(C(=O)N2CCN(CCC(=O)O)CC2)nc(=O)[nH]1	0.87
51	CC(=O)n1nc(-c2cccnc2)nc1NCc1ccc(F)cc1	-3.6
52	Nc1cc(=O)nc(SCC(=O)Nc2ccc(F)cc2)n1-c1ccc(Cl)cc1	-0.69
53	CCCSc1ncc(Cl)c(C(=O)Nc2sc3c(c2C(N)=O)CCCC3)n1	-0.85
54	COc1cccc(CN2CCCC3(CCN(C(=O)c4ccncc4)C3)C2=O)c1OC (stereo not drawn)	-0.25
55	CN(C)CCN(Cc1ccco1)C(=O)c1cc2c(s1)-c1ccccc1OC2	-2
56	Cc1ccc(NC(=O)C(=O)NCC2(c3ccccc3)CCCC2)cc1Cl	-0.38
57	CC1(C)OC(=O)N(CC(=O)N(Cc2ccccc2)CC(F)(F)F)C1=O	0.63
58	O=C(NCCc1ncc[nH]1)C1CCCN(C2CCN(Cc3cccnc3)CC2)C1 (stereo not drawn)	-1.6
59	O=C(OOC(=O)c1ccccc1)c1ccccc1	0.14
60	Cc1ccccc1COC(=O)c1ccc(-c2nnn(Cc3ccccc3F)n2)cc1	-1.3

The list goes on:
item	compound	Bm FixLJ act
61	O=C1N(CCCc2ccccc2)CCCC1(O)CNCc1cccc(F)c1F (stereo not drawn)	-0.53
62	CCOc1ccc(C(=O)Nc2ccc3oc(-c4cccc5ccccc45)nc3c2)cc1	0.07
63	CCN(CC)CCCNC(=O)C(=O)Nc1ccc2nc3n(c(=O)c2c1)CCCCC3	-1.3
64	CC1(C)C(C(=O)N2CC3CCC2CN(C(=O)c2ccccn2)C3)C1(C)C (stereo not drawn)	-3
65	N#C/C(=C\c1c(Oc2ccc(Br)cc2)nc2ccccn2c1=O)c1nc2ccccc2s1	0.93
66	CS(=O)(=O)NCC(=O)NC(Cn1cccn1)c1ccccc1 (stereo not drawn)	1.2
67	COc1nc2c(cc1C(=O)NCc1nc(N)n[nH]1)C(=O)N(C1CCCC1)C2	0.3
68	Cc1cccc(Cn2c(COc3ccccc3)nc3ccccc32)c1	-1.5
69	Cc1ccc(CNC(=O)CCN2CCC(C#N)(c3ccccc3)CC2)cc1	0.62
70	CCN(CC1CCCO1)C(=O)NCc1cnc(-c2ccccc2OC)s1 (stereo not drawn)	-1.2
71	CCc1c(C)noc1NC(=O)CCCc1ccc(OC)cc1	-0.4
72	COc1cccc2c1OCCCN(C(=O)c1cnc3ccnn3c1C)C2	0.6
73	COc1ccc(S(=O)(=O)N(C)Cc2nc(-c3cccc(C)c3)no2)cc1	0.94
74	CN1CCC(N2CCN(C(=O)NCc3nc4ccccc4[nH]3)CC2)CC1	-0.49
75	CC(C)c1nc(CNC(=O)Nc2ccc(F)c(C(F)(F)F)c2)no1	0.11
76	COc1ccccc1CNC(=O)CCc1c(C)nc2cc(-c3ccccc3OC)nn2c1C	-1.1
77	Cc1ccc(N2C(=O)C(CC(=O)Nc3ccc(F)cc3)N(CCC3=CCCCC3)C2=O)cc1 (stereo not drawn)	0.1
78	O=C(c1ccc(F)cc1Cl)N1CCC(Cc2noc(C3CC3)n2)CC1	1.2
79	O=C(C1CCS(=O)(=O)CC1)N1CC2c3ccccc3OC[C@]2(C(=O)O)C1 (stereo partly drawn)	-1.3
80	Cc1cc(C)cc(C(=O)Nc2cccc(-c3nc4ncccc4o3)c2C)c1	-0.8
81	Cc1noc(/C=C/c2cccs2)c1S(=O)(=O)N1CCC(C(=O)NCc2ccccc2Cl)CC1	-0.88
82	CCOC(=O)CC(NC(=O)CCc1c(C)nc2c(c1C)c(=O)n(C)c(=O)n2C)c1ccc(OCC)c(OC)c1 (stereo not drawn)	-0.46
83	Cc1cc(C)cc(-n2nnc(-c3nsc(NC(=O)c4ccccc4Cl)n3)c2C)c1	-2.4
84	CN(Cc1cccc(C(F)(F)F)c1)c1nccc(N2CCC(O)C2)n1 (stereo not drawn)	0.04
85	CCCN(CCC)C(=O)CSc1nc2sc3c(c2c(=O)n1-c1ccccc1)CCN(C(C)=O)C3	1.4
86	CN(C)C(=O)COC1COCCC1NC(=O)c1ccc2c(c1)OCCO2 (stereo not drawn)	-2.3
87	NS(=O)(=O)c1cccc(NC(=O)NCc2csc(N3CCCC3)n2)c1	-0.38
88	COc1cc(C2C(C(=O)Nc3ccccc3)=C(C)Nc3nc(SCc4ccccc4F)nn32)cc(OC)c1OC (stereo not drawn)	0.38
89	COc1ccc(CN2CCCN(C(=O)c3cnc(C4CC4)nc3)CC2)cc1O	0.2
90	CCCOc1ccc(C(=O)Nc2ccc(NC(=O)c3ccc(Br)cc3)cc2)cc1	-0.53

Another view of some results above.
51	CC(=O)n1nc(-c2cccnc2)nc1NCc1ccc(F)cc1
  Bm FixLJ act: -3.6
52	Nc1cc(=O)nc(SCC(=O)Nc2ccc(F)cc2)n1-c1ccc(Cl)cc1
  Bm FixLJ act: -0.69
53	CCCSc1ncc(Cl)c(C(=O)Nc2sc3c(c2C(N)=O)CCCC3)n1
  Bm FixLJ act: -0.85
54	COc1cccc(CN2CCCC3(CCN(C(=O)c4ccncc4)C3)C2=O)c1OC (stereo not drawn)
  Bm FixLJ act: -0.25

(listing goes on)
item	compound	Bm FixLJ act
91	COc1ccc(/C=C\c2onc(C)c2S(=O)(=O)N2CCC(C(=O)Nc3ccccc3OC)CC2)cc1	-0.42
92	COc1ccc(C)cc1NC(=O)c1c(C(=O)Nc2cccc(C)c2C)sc2nc(C)cc(=O)n12	-0.34
93	COc1ccccc1N1CCN(C(=O)CN2C(=O)COc3ccc(S(=O)(=O)N4CCCCCC4)cc32)CC1	0.61
94	CCc1nn(CC(=O)N2CCN(c3cccc(C)c3C)CC2)c(=O)c2cc3occc3n12	-2
95	Cc1nn(C)c(C)c1CCC(=O)NCC1CCCN(c2ccc(C(N)=O)cn2)C1 (stereo not drawn)	1.2
96	Cc1ccc(Cl)cc1-n1c(=O)c2sc3ccccc3c2n(CC(=O)NC2CCCCC2)c1=O	-1.1
97	O=C(Nc1ccc(O)c(-c2nc3ccccc3o2)c1)c1sc2ccccc2c1Cl	0.11
98	Cc1[nH]c(C)c(Cl)c(=O)c1Cl	-0.52&-1.2
99	CCOc1ccc(OCC)c(NC(=O)C2CCCN(S(=O)(=O)c3cc(Br)cc4c3N(C(=O)CC)CC4)C2)c1 (stereo not drawn)	-2.4
100	CSc1ccc(CCNC(=O)CCc2c(C)nc3c(-c4ccccc4)c(C)nn3c2C)cc1	-1.2

Ordered by molar mass (lowest first): some entries from above
item	compound	Bm FixLJ act
92	COc1ccc(C)cc1NC(=O)c1c(C(=O)Nc2cccc(C)c2C)sc2nc(C)cc(=O)n12	-0.34
93	COc1ccccc1N1CCN(C(=O)CN2C(=O)COc3ccc(S(=O)(=O)N4CCCCCC4)cc32)CC1	0.61
99	CCOc1ccc(OCC)c(NC(=O)C2CCCN(S(=O)(=O)c3cc(Br)cc4c3N(C(=O)CC)CC4)C2)c1 (stereo not drawn)	-2.4

(more compounds)
item	compound	Bm FixLJ act
101	O=C(CN1C(=O)COc2ccc(S(=O)(=O)N3CCOCC3)cc21)N1CCN(c2ccccc2)CC1	0.63
102	Cc1ccc(NC(=O)Cn2ncn3c(cc4ccccc43)c2=O)cc1C	-3.2
103	CC(C)CC(NC(=O)c1ccc(-c2cncc(C(=O)O)n2)cc1)C(N)=O (stereo not drawn)	0.27
104	Cc1oc2ncn(C)c(=O)c2c1C(=O)Nc1ccccn1	-0.64
105	O=C(NCc1ccc(Cl)cc1)c1ccc2c(c1)N(Cc1ccccc1F)C(=O)c1ccccc1S2=O (stereo not drawn)	0.75
106	Cc1ccc(NC(=O)c2c(C)oc3ccc(O)c(CN4CCCCCC4)c23)cc1	-0.46
107	N#Cc1c[nH]c(C(=O)N2CCCC(CN3CCCC3=O)C2)c1 (stereo not drawn)	-0.82
108	Cc1cccc(S(=O)(=O)N2CCC(O)[C@@](CC3CC3)(C(=O)O)C2)c1 (stereo partly drawn)	0.84
109	Cc1nonc1C(=O)NC1C2CCC1CN(C(=O)c1ccn(C(F)F)n1)C2 (stereo not drawn)	-0.32
110	C=CCN(C(=O)CC1COc2ccc(C(=O)N(C)C)cc2N1C)C1CCCC1 (stereo not drawn)	1.3
111	COc1ccc(CCNC(=O)CN(c2cc(C(F)(F)F)ccc2Cl)S(C)(=O)=O)cc1	-1.2
112	COc1ccc(NC(=O)Cn2c(C)c3cnn(-c4ccccc4)c(=O)c3c2C)c(OC)c1	-2.7
113	COc1ccc(CNC(=O)c2cc3c(=O)[nH]c4ccc(C)cc4c3s2)c(OC)c1	-1.2
114	Nc1nnc(SCC(=O)Nc2ccccc2C(F)(F)F)s1	0.26

This is a subset; the hit share may differ from the screen's.
